PK Bst: modulators of Bacillus stearothermophilus pyruvate kinase | 51,000 compounds, 1.2% hits | Potency, µM | AID 361 | partly purified Bacillus stearothermophilus pyruvate kinase, luminescence ATP production; ribose 5-phosphate activator present at AC10; in the data active means potency below about 11 µM; inconclusive means mostly about 12 µM to 25 µM; inactive means weaker than that;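 the screen sought inhibitors and activators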;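 further: potency means the concentration at half of the fitted maximal effect; scaled between full activation by ribose 5 phosphate and full inhibition by luteolin; about four in five hits inhibit and the cells do not say which; series up to 57 µM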
YjeE inh: inhibitors of E. coli YjeE (TsaE) | P0AF67 | purified YjeE, fluorescence polarisation of a bound ADP probe | Potency, µM | 71,000 compounds, 0.05% hits; active = well fitted falling curve; inconclusive = weaker or top-dose-only fall, or a rising curve; inactive = flat or poorly fitted curve;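 further: top concentration of the series not given in the record; excess ADP was the control for the full effect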
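Fluorescence polarization of a BODIPY Texas Red–ADP probe (2 uM) bound to purified YjeE (10 uM) was read after 15 min room-temperature incubation with compounds. Loss of polarization marks inhibitors; ADP serves as titrated control.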
Active calls of the source: *; i = inactive; ? = inconclusive; . = no result given.

cpd	PK Bst	YjeE inh	Compound
1	.	i	O=C1c2cccc([N+](=O)[O-])c2C(=O)N1c1ncn[nH]1
2	.	i	COC(=O)C1=C(C)NC(C)=C([N+](=O)[O-])[C@@H]1c1ccccc1C(F)(F)F
3	.	i	Cn1nc(-c2ccc(Cl)cc2)c2cc(C(=O)NCC3CCCO3)sc21 (configuration not stated)
4	.	i	NC(=O)Nc1ccc(Oc2c(F)c(F)c(F)c(F)c2F)cc1
5	>57	i	O=c1[nH]c2cc3c(cc2cc1C(c1nnnn1CC1CCCO1)N1CCCC1)OCO3 (configuration not stated)
6	>11	.	CC(C)[N+]1(C)[C@@H]2CC[C@H]1CC(OC(=O)C(CO)c1ccccc1)C2 (some centres not stated)
7	>57	i	COCCCn1c(C(C)C)nc2oc3cc(OC)ccc3c(=O)c2c1=O
8	9.2*	i	O=C(c1n[nH]c2ccccc12)N1CCN(S(=O)(=O)c2ccc3ccccc3c2)CC1
9	>57	i	O=C(CN1C(=O)NC2(CCCCCCC2)C1=O)NC(=O)NCc1ccco1
10	>57	i	O=C(c1ccncc1)c1ccc(N2CCN(C3CC(=O)N(Cc4ccccc4)C3=O)CC2)cc1 (configuration not stated)
11	>57	i	O=C(CCCCn1c(=O)c2ccccc2n(CC(=O)Nc2ccccc2)c1=O)NCc1ccco1
12	.	i	CCn1nc(NC(=O)c2ccncc2)c2cc3cc(C)ccc3nc21
13	>57	i	FC(F)(F)c1nnc2sc(-c3cccs3)nn12
14	.	i	Cc1c(C(=O)NN2CCCCC2)nn(-c2ccc(Cl)cc2Cl)c1-c1ccc(I)cc1
15	.	i	c1ccc2c(c1)nnn1c3ccccc3nc21
16	>57	i	CCC(C)(C)NC(=O)CN(C(=O)CNS(=O)(=O)c1ccc(C)cc1)c1ccc2c(c1)OCCO2
17	>57	i	O=C(NCCc1c[nH]c2ccccc12)C1Cc2ccccc2CN1C(=O)c1ccco1 (configuration not stated)
18	>57	i	C=CCn1c(O)c(CN2CCN(Cc3ccccc3)CC2)c(C)c(C#N)c1=O
19	.	i	Cn1c(=O)c2c(nc(N3CCN(Cc4ccccc4)CC3)n2CCSc2ncccn2)n(C)c1=O
20	>57	i	CN(C)CCCNc1c2c(c(C#N)c3nc4ccccc4n13)CCC2
21	.	i	CC(=O)Nc1c(C)cc(OCC(=O)O)cc1C
22	>57	i	CC1Cc2ccccc2N1C(=O)CSc1nnc(NC(=O)Cc2cccs2)s1 (configuration not stated)
23	>57	i	COc1cccc(C(c2nnnn2C(C)(C)C)N2CCN(C3CCCCC3)CC2)c1OC (configuration not stated)
24	.	i	COc1ccc(Cl)cc1N=Nc1ncc[nH]1
25	>57	i	CC(NC(=O)C(c1ccccc1)c1ccccc1)C(=O)O (configuration not stated)
26	>57	i	O=C(NC1CCCC1)c1ccc2nc[nH]c2c1
27	>57	i	Cc1c(C(C)NC(=O)Nc2ccc(F)cc2F)cnn1C (configuration not stated)
28	>57	i	CSc1nnc2n(CCc3ccccc3)c(=O)c3c4c(sc3n12)CCCC4
29	>57	i	Cc1ccc(NC(=O)C(C)N2C(=O)c3ccccc3C2=O)cc1 (configuration not stated)
30	>57	i	Cc1csc(=N)n1CC(=O)N1CCc2ccccc21
31	>57	i	NC(=O)CN(c1ccccc1)C1SC(=O)N(Cc2ccccc2)C1=O (configuration not stated)
32	.	i	CC(=O)Oc1cc2c(C(=O)NCCCN3CCOCC3)c(C)oc2c2ccccc12
33	>26	i	O=C(O)CCC(=O)Nc1ccc(S(=O)(=O)Nc2nccs2)cc1
34	.	i	CCc1cccc(Nc2cc(C)nc3ncnn23)c1
35	.	i	O=C(c1ccccc1)c1ccc(C(=O)O)c(C(=O)O)c1
36	>57	i	CCn1cc(C(=O)NCc2ccco2)c(=O)c2cc(S(=O)(=O)N3CC(C)CC(C)C3)ccc21 (configuration not stated)
37	>57	i	CCOc1ccc(OCC)c(S(=O)(=O)N2CCCCC2)c1
38	.	i	COc1ccccc1CN1CCCC2(CCN(C(=O)c3cnccn3)CC2)C1
39	>57	i	COCCSc1nnc(NC(=O)CSc2ccccc2)s1
40	>26	.	CC(=O)N/C(=N/c1nc(C)cc(C)n1)Nc1ccc(NC(C)=O)cc1
41	.	i	CCCCCCCC(=O)O[C@H](CC(=O)O)C[N+](C)(C)C
42	>57	i	CCOC(=O)C1CCN(C(c2cc3ccc(C)c(C)c3[nH]c2=O)c2nnnn2C2CCCCC2)CC1 (configuration not stated)
43	>57	i	N#Cc1ccc(NC(=O)C2CC(c3ccc(F)cc3)=NO2)cc1 (configuration not stated)
44	>57	i	COc1ccccc1N1CCSC1C(N)=O (configuration not stated)
45	>57	i	O=C(NC1CCN(C(=O)N2CCOCC2)CC1)c1ccccc1

Ordered by length of the SMILES (descending): 3 of the compounds above.
cpd	PK Bst	YjeE inh	Compound
36	>57	i	CCn1cc(C(=O)NCc2ccco2)c(=O)c2cc(S(=O)(=O)N3CC(C)CC(C)C3)ccc21 (configuration not stated)
28	>57	i	CSc1nnc2n(CCc3ccccc3)c(=O)c3c4c(sc3n12)CCCC4
45	>57	i	O=C(NC1CCN(C(=O)N2CCOCC2)CC1)c1ccccc1

Carrying on:
cpd	PK Bst	YjeE inh	Compound
46	.	i	CC(C)C(=O)N1CCN(c2ccccc2N)CC1
47	>57	i	COc1ccc(NC(=O)NC2(C(=O)N3CCCCCC3)CCCCC2)cc1
48	>57	i	COC(=O)c1c(NS(=O)(=O)c2cccs2)sc2c1CCCC2
49	.	i	CCCCN1c2ccccc2N(CCCO)c2cc(C)nnc21
50	.	i	COc1cc2c(cc1OC)C(=O)Cc1ccc3c(c1CN(C)CC2)OCO3
51	>57	i	Cc1ccc(Cn2nnc3c(=O)n(CC(=O)N4CCCc5ccccc54)cnc32)cc1
52	>57	i	CC(C)(O)c1cn(-c2nonc2N)nn1
53	>57	i	CC(C)Sc1nc2sc3c(c2c2nnc(SCC(=O)NCc4ccco4)n12)CCCC3
54	.	i	COc1cccc(OCC(=O)Nc2c(C(=O)Nc3ccc(OC)cc3OC)oc3ccccc23)c1
55	.	i	COc1ccccc1CNc1nc(-c2ccc(N(C)C)cc2)nc2ccccc12
56	.	i	CCCCOC(=O)c1ccc(O)cc1
57	>57	i	COc1cc(NC(=O)c2ccc(NS(=O)(=O)c3c(C)noc3C)cc2)cc(OC)c1
58	>57	i	CS(=O)(=O)N(CC(=O)N1CCN(c2ccccc2F)CC1)c1ccc2c(c1)OCCO2
59	.	i	O=C1c2ccccc2[C@@H]([C@@H]2c3ccccc3C(=O)c3cc(Br)ccc32)c2ccc(Br)cc21
60	>57	i	CN(C)S(=O)(=O)c1ccc2c(c1)C(CC(=O)O)OC2=O (configuration not stated)

With a hit mark in PK Bst (from the list above):
cpd	PK Bst	YjeE inh	Compound
8	9.2*	i	O=C(c1n[nH]c2ccccc12)N1CCN(S(=O)(=O)c2ccc3ccccc3c2)CC1

Record cards, as listed above:
COc1ccc(NC(=O)NC2(C(=O)N3CCCCCC3)CCCCC2)cc1 is listed with PK Bst: >57; YjeE inh: i
CCCCOC(=O)c1ccc(O)cc1 is listed with PK Bst: .; YjeE inh: i
COc1cc(NC(=O)c2ccc(NS(=O)(=O)c3c(C)noc3C)cc2)cc(OC)c1 is listed with PK Bst: >57; YjeE inh: i

(next part)
cpd	PK Bst	YjeE inh	Compound
61	>57	i	CC(C)C1Nc2ccc(S(N)(=O)=O)cc2C2C=CCC21 (configuration not stated)
62	.	i	COc1ccc(C(c2sc3nc(C)nn3c2O)N2CCC(O)CC2)cc1OC (configuration not stated)
63	>57	i	COc1ccc(-n2c(C)cc(=O)c3c2CC(C)(C)CC3=O)cc1
64	>57	i	Cc1ccc(-n2nnnc2SCC(=O)Nc2cccc(NC(=O)c3ccco3)c2)cc1C
65	.	i	O=C(O)C12CC3(C(=O)O)CC(C(=O)O)(CC(C(=O)O)(C1)C3=O)C2=O
66	.	?	Cn1c(C(=O)N2CCN(C(=O)c3ccco3)CC2)cc2c(=O)n(C)c3ccccc3c21
67	.	i	c1cncc(CNc2nc(-c3ccoc3)nc3ccccc23)c1
68	>57	i	COC(=O)Cn1c(CN(Cc2ccccc2)Cc2ccccc2)nc2c1c(=O)[nH]c(=O)n2C
69	>57	i	CCOc1ccccc1NC(=O)c1cc(S(=O)(=O)N2CCC3(CC2)OCCO3)ccc1F
70	.	i	Cn1c(=O)oc2cc(S(=O)(=O)Nc3ccc(Cl)cc3F)ccc21
71	.	i	O=C1c2ccccc2C(=O)N1CCc1nc2ccccc2c(=O)n1Cc1ccco1
72	>57	i	CCOC(=O)C1CCCN(S(=O)(=O)c2ccc(C)cc2)C1 (configuration not stated)
73	>11	i	CCOC(=O)Cc1csc(-n2sc3ccccc3c2=O)n1
74	>57	i	CCN(CC(=O)Nc1ccc(OC)c(OC)c1)S(=O)(=O)c1ccc(C)cc1
75	>57	i	O=C(NC1CCCC1)C(c1ccc(N2CCOCC2)cc1)N(Cc1ccccc1)C(=O)c1ccco1 (configuration not stated)
76	>26	.	O=c1c2c3c(sc2n2cnnc2n1C1CCCCC1)CCC3
77	>57	i	Cc1cccc(-n2c(SCC(=O)NCc3ccco3)nc3ccccc3c2=O)c1
78	?	i	O=C1CCCCCN1CSc1nc2ccccc2s1
79	>57	i	Cn1nnnc1SCc1nnc(-c2ccc(Cl)cc2)o1
80	>57	i	CCOC(=O)C1CCCN(S(=O)(=O)c2cc(OCC(N)=O)c(C)cc2Cl)C1 (configuration not stated)
81	.	i	Cn1c(O)c(C=NCCCCCC(=O)O)c(=O)n(C)c1=O
82	>57	i	CC1CN(Cc2nc3c(c(=O)n(C)c(=O)n3C)n2CC(O)CO)CC(C)O1 (configuration not stated)
83	.	i	CC(=O)N1CCN(C2=Nc3cccc4cccc2c34)CC1
84	>57	i	N#CC1=C(N)OC2=C(C(=O)CCC2)C12CCN(C(=O)OCc1ccccc1)CC2
85	>26	.	c1csc(-c2nn3c(C4CCCCC4)nnc3s2)c1
86	>11	i	CCCc1cc(C(N)=O)c(NC(=O)C2CCCO2)s1 (configuration not stated)
87	>57	i	COc1ccc(OC)c(S(=O)(=O)N2c3cc(F)ccc3CCC2C)c1 (configuration not stated)
88	>57	i	Cc1ccc(C(C)C)c(Oc2nnnn2-c2ccccc2)c1
89	>57	i	CC(C)CCNC(=O)CCNS(=O)(=O)c1ccc(Cl)cc1
90	.	i	O=C(NC1CCCCC1)c1ccc(S(=O)(=O)N2CCOCC2)cc1
91	>57	i	O=C(NCc1ccccn1)c1c(O)c2c([nH]c1=O)CCCC2
92	>26	.	Cc1cc(C)n(C(=O)CNC(=O)c2cccs2)n1
93	>57	i	O=C(Nc1ccc(NC(=O)C2CC2)nc1)c1ccco1
94	>57	i	Cc1c(Cl)cccc1NC(=O)CC(C(=O)O)C1CCCO1 (configuration not stated)
95	.	i	CCCCNc1nc(C)nc2c1nc(-c1ccccc1)n2CCCN(C)C
96	>57	i	CCOC(=O)C1=C(C)NC2=C(C(=O)CCC2)C1c1cccs1 (configuration not stated)
97	>57	i	COc1ccc(C)cc1S(=O)(=O)Nc1cccc(SC)c1
98	>57	i	Cc1noc(C)c1COC(=O)CCC(=O)c1ccc(F)cc1
99	.	i	Cc1ccc(NC(=O)c2cc(C)on2)cc1
100	>57	i	CCC1(CC)Nc2ccccc2C(=O)N1c1ccc(NC(C)=O)cc1
101	.	i	COc1ccc(NC(=O)N2CCC3(CC2)CCN(C(=O)c2ccncc2)CC3)cc1
102	.	i	CSc1ccc(-c2nnn(Cc3ccc(C)cc3)n2)cc1
103	.	i	CCOc1ccc(Nc2ncnc3c2cnn3-c2ccccc2)cc1
104	.	i	c1cncc(-c2cncnc2NC2CCNCC2)c1
105	.	i	Cc1cc(C(=O)N2CCOCC2)n(-c2ccccc2)n1

4 compounds drawn at random from the list so far:
cpd	PK Bst	YjeE inh	Compound
102	.	i	CSc1ccc(-c2nnn(Cc3ccc(C)cc3)n2)cc1
104	.	i	c1cncc(-c2cncnc2NC2CCNCC2)c1
93	>57	i	O=C(Nc1ccc(NC(=O)C2CC2)nc1)c1ccco1
98	>57	i	Cc1noc(C)c1COC(=O)CCC(=O)c1ccc(F)cc1

Following part
cpd	PK Bst	YjeE inh	Compound
106	>57	i	CCS(=O)(=O)NCC(c1cccnc1)N1CCN(c2ccc(F)cc2)CC1 (configuration not stated)
107	.	i	O=C(O)C1CCCN1S(=O)(=O)c1cccc2cccnc12 (configuration not stated)
108	>11	.	CCCCOc1ccc(CN(C)c2ncnc(N)n2)cc1
109	.	i	O=C(c1ccco1)N1CCC2(CC1)CN(c1ccccc1)C2
110	>57	i	C=CCn1c(SCc2nc3c(c(=O)[nH]c(=O)n3CCCC)n2CCC)nnc1-c1ccccc1
111	>57	i	Cc1sc2nc(SCC(=O)c3cc(C)n(CC4CCCO4)c3C)n(C(C)C)c(=O)c2c1C (configuration not stated)
112	>57	i	COc1ccc(N2C(=O)CCC(C(=O)N3CCC(C(N)=O)CC3)C2c2ccc(F)cc2)cc1 (configuration not stated)
113	.	i	CN1CCCN([C@@H](c2ccccc2)c2ccc(Cl)cc2)CC1
114	>57	i	CC(C)(C)n1ncc2c(=O)n(CC(=O)N3CCc4ccccc43)cnc21
115	>57	i	COc1ccc(N(CC(O)CN2CCCCC2)S(=O)(=O)c2ccc(C)cc2)cc1 (configuration not stated)
116	.	i	CCOC(=O)Cc1csc(NC(=O)c2ccc3c(c2)OCO3)n1
117	>57	i	Cc1c(NS(C)(=O)=O)c(=O)n(-c2ccccc2)n1C
118	>57	i	Cc1[nH]c2ccc(-c3nnc(SCC(=O)N4CCCc5ccccc54)o3)cc2c1C
119	>57	i	CC1CCN(S(=O)(=O)c2ccc(Br)s2)CC1
120	>26	.	COc1ccc(N/C(=N\c2nc(C)cc(C)n2)NC(=O)C(C)C)cc1OC
121	>57	i	CCOc1ccc2[nH]c(=O)c(CN(Cc3nnnn3CCc3ccccc3)CC3CCCO3)cc2c1 (configuration not stated)

Assay outcomes from PubChem BioAssay.

A portion of the library; rates above refer to the full screens.
